PKD1 inh: blocks activity of human protein kinase D1; Q15139; PKD1 kinase fluorescence polarization assay; inhibition, %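 (about 10 µM by stock and volumes)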; hit rate 0.056% among 200,000;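 active means inhibition of 50% or more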;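 further: controls were vehicle for no effect and a reference inhibitor for full effect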
GALR2 agonist: activates the human galanin receptor 2 | O43603 | GALR2-expressing cells, agonist activation read-out | activation, %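 (tested at 5 µM)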 | hit rate 0.48% among 140,000;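 active means above mean plus 3 SD of all compounds, about 5% in these data, not always enough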;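 further: 0% = vehicle buffer wells and 100% = reference agonist at full effect; tested in CHO reporter cells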
Target sequence (O43603 whole entry, looked up): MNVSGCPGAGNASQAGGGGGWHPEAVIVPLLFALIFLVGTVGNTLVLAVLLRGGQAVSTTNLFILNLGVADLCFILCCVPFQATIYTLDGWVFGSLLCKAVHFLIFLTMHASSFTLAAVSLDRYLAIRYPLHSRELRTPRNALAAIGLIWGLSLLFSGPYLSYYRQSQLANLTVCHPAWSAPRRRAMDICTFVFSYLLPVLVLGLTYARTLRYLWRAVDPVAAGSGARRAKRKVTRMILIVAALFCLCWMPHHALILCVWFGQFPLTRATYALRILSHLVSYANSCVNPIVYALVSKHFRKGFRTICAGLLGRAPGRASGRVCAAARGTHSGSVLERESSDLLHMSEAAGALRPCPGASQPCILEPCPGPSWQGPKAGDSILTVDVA
INS promoter inh: TRM-6 insulin promoter activity inhibition; TRM-6 cells (human fetal islet line), insulin promoter-eGFP reporter, imaging; reporter expression induced with tamoxifen; inhibition, % at 2 µM; hit rate 0.9% among 130,000; AID 1273;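 active means inhibition above the mean plus 3 SD, with well images judged a real hit on visual review, cut at about 60% in these data, passing the limit was not always enough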
RGS16-Gao HTS: regulators of human RGS16-Galphao interaction; O15492+P09471; bead-based flow cytometry RGS16-Galphao binding, fluorescence; actives lie on both sides; binding response (% of control), % at 10 µM; hit rate 0.38% among 220,000;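 active means below 25% or above 175%, edge rows of some plates excepted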;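 further: Galphao activated by GDP with aluminum fluoride before binding; 100% = wells without compound and 0% = beads without RGS; some results beyond the cut were filed as inactive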
Target sequence (O15492 whole entry, looked up): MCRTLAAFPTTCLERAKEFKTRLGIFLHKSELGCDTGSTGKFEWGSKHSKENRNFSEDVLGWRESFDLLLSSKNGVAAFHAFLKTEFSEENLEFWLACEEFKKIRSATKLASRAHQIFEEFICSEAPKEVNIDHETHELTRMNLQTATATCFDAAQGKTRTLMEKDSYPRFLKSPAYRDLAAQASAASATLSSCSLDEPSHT
Target sequence (P09471 whole entry, looked up): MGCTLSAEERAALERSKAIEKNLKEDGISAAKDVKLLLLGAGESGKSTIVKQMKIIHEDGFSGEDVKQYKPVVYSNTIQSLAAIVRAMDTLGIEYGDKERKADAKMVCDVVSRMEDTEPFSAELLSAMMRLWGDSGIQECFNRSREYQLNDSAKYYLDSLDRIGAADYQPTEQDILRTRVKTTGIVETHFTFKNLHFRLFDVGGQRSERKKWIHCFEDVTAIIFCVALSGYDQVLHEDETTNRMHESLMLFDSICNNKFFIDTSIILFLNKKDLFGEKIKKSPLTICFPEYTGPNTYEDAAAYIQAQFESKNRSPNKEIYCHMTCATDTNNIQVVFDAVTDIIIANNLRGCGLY
HSV replic up: increases HSV replication in cells; hit rate 0.005% among 220,000; maximum fold increase; AID 1956; HSV replication augmentation in cells, fold increase;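 active means peak rise of 1.5-fold or more in the series; tested in PC3 cells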;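 further: first round at 10 µM; read as green reporter fluorescence; hits show the peak of a series up to 25 µM; 1 = signal of infected wells without compound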
INS promoter inh cell count: also measured in INS promoter inh; calls as there; normalized cell count, %; measured here: cell count, toxicity; reference of the scale not given here;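 cells exposed to compound for 48 h; stained nuclei by imaging scaled within each plate; lower means fewer cells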
HSV replic up primary fold: second read-out of HSV replic up, no call of its own (marks repeat the call); fold increase; compound at 10 µM; measured here: primary screen fold increase 10 uM; tested in PC3 cells;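 GFP signal in the first replicate; 1 = infected wells without compound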
Active calls of the source: *.

Results for COCC(=O)NC1CC2CCCC(C1)N2Cc1ccccc1 (stereo not given) ?
PKD1 inh: 8.2; GALR2 agonist: -1.8; RGS16-Gao HTS: 95.1; HSV replic up: inactive; HSV replic up primary fold: 0.86

How did COc1cccc(C(=O)NC(C)C(c2cccs2)N2CCN(C)CC2)c1 (stereo not given) do in these assays?
PKD1 inh: -2.4; GALR2 agonist: -3.2; RGS16-Gao HTS: 103.6; HSV replic up: inactive; HSV replic up primary fold: 0.88

How did CCOC(=O)CC1CCCCN1Cc1nc(-c2ccc(F)c(OC)c2)oc1C (stereo not given) do in these assays?
PKD1 inh: -4.1; RGS16-Gao HTS: 103.0; HSV replic up: inactive; HSV replic up primary fold: 1.01

How did Cc1ccc(C(=O)N2CCN(c3ccc([N+](=O)[O-])c(NCc4ccco4)c3)CC2)cc1 do in these assays?
PKD1 inh: 6.0; GALR2 agonist: -1.8; INS promoter inh: 17.2; RGS16-Gao HTS: 106.2; HSV replic up: inactive; INS promoter inh cell count: 83.5; HSV replic up primary fold: 0.95

What do the screens show for `O=C(Cn1c(NCCCO)nc2ccccc21)c1ccc(Br)cc1`?
PKD1 inh: -28.6; GALR2 agonist: 0.5; INS promoter inh: -50.0; RGS16-Gao HTS: 106.9; HSV replic up: inactive; INS promoter inh cell count: 110.6; HSV replic up primary fold: 1.01

How did Cc1ccc(-c2nnc(N3CCCCC3)c3ccccc23)cc1S(=O)(=O)N1CCN(C)CC1 do in these assays?
PKD1 inh: 0.9; GALR2 agonist: -1.3; INS promoter inh: 30.6; RGS16-Gao HTS: 105.3; HSV replic up: inactive; INS promoter inh cell count: 127.6; HSV replic up primary fold: 0.87

Results for COc1ccc(C2CC(=O)c3cnc(N4CCN(Cc5ccccc5)CC4)nc3C2)cc1 (stereo not given) ?
PKD1 inh: -7.3; GALR2 agonist: -1.5; INS promoter inh: -23.8; RGS16-Gao HTS: 102.4; HSV replic up: inactive; INS promoter inh cell count: 73.6; HSV replic up primary fold: 0.99

Results for CC(C(=O)Nc1ccccc1)N1C(=O)c2ccccc2C1=O (stereo not given) ?
PKD1 inh: -5.1; INS promoter inh: 33.3; RGS16-Gao HTS: 105.7; HSV replic up: inactive; INS promoter inh cell count: 144.0; HSV replic up primary fold: 0.92

How did O=C(O)Cn1ccc2ccccc21 do in these assays?
RGS16-Gao HTS: 104.2; HSV replic up: inactive; HSV replic up primary fold: 0.9

What do the screens show for `O=C(CCc1ccccc1)c1c(O)cc(O)cc1O`?
RGS16-Gao HTS: 108.8; HSV replic up: inactive; HSV replic up primary fold: 0.82

How did COC(=O)Nc1ccc(S(=O)(=O)N(CCO)CCO)cc1 do in these assays?
PKD1 inh: 1.7; GALR2 agonist: 0.6; INS promoter inh: 25.0; RGS16-Gao HTS: 105.3; HSV replic up: inactive; INS promoter inh cell count: 96.7; HSV replic up primary fold: 0.97

Results for CCn1c(SCc2cccc(C)c2)nnc1-c1ccc(C)cc1 ?
PKD1 inh: -6.7; GALR2 agonist: -1.3; INS promoter inh: -38.2; RGS16-Gao HTS: 81.4; HSV replic up: inactive; INS promoter inh cell count: 154.6; HSV replic up primary fold: 0.97

Results for O=C1/C(=C/c2ccc(Cl)cc2)NC(=S)N1Cc1cccnc1 ?
PKD1 inh: 5.7; RGS16-Gao HTS: 105.0; HSV replic up: inactive; HSV replic up primary fold: 0.97

How did Cc1ccc(S(=O)(=O)N(C)C)cc1NC(=O)Nc1c(-c2ccccc2)noc1C do in these assays?
RGS16-Gao HTS: 102.7; HSV replic up: inactive; HSV replic up primary fold: 0.97

Results for O=[N+]([O-])/C(C(Cl)=C(Cl)Cl)=C(/NC1CC1)Sc1ccccc1 ?
PKD1 inh: -1.2; RGS16-Gao HTS: 99.6; HSV replic up: inactive; HSV replic up primary fold: 0.93

What do the screens show for `COc1ccccc1NC(=O)C/C(N)=N/O`?
PKD1 inh: -0.7; GALR2 agonist: -3.5; INS promoter inh: 4.3; RGS16-Gao HTS: 100.6; HSV replic up: inactive; INS promoter inh cell count: 66.5; HSV replic up primary fold: 0.95

What do the screens show for `CC(=O)c1ccc(Sc2nnc(C)s2)c([N+](=O)[O-])c1`?
PKD1 inh: 0.3; RGS16-Gao HTS: 95.9; HSV replic up: inactive; HSV replic up primary fold: 1.19

What do the screens show for `N#Cc1ccsc1NC(=O)COC(=O)c1ccc2ccccc2c1`?
PKD1 inh: 1.2; GALR2 agonist: -0.6; INS promoter inh: 10.5; RGS16-Gao HTS: 101.8; HSV replic up: inactive; INS promoter inh cell count: 87.0; HSV replic up primary fold: 1

Results for COC(=O)c1ccccc1NC(=O)Nc1nnc(N2CCC(C)CC2)s1 ?
PKD1 inh: -6.6; GALR2 agonist: -1.4; RGS16-Gao HTS: 61.3; HSV replic up: inactive; HSV replic up primary fold: 0.76

How did Fc1ccc(C(c2ccc(F)cc2)N2CCN(C/C=C/c3ccccc3)CC2)cc1 do in these assays?
PKD1 inh: 0.1; GALR2 agonist: 0.1; INS promoter inh: 33.3; RGS16-Gao HTS: 105.9; HSV replic up: inactive; INS promoter inh cell count: 94.4; HSV replic up primary fold: 0.88

What do the screens show for `CCCCOc1ccc(-c2cc(C(F)(F)F)c(C#N)c(SCC(=O)O)n2)cc1`?
PKD1 inh: -8.1; RGS16-Gao HTS: 102.5; HSV replic up: inactive; HSV replic up primary fold: 1.28

How did COC(=O)c1cccc(NCN2C(=O)c3ccccc3C2=O)c1 do in these assays?
PKD1 inh: -9.2; GALR2 agonist: 1.3; INS promoter inh: -15.6; RGS16-Gao HTS: 107.7; HSV replic up: inactive; INS promoter inh cell count: 66.1; HSV replic up primary fold: 0.92

How did Oc1ccc(-c2nc3ccc4ccccc4c3c3c2CCC3)cc1O do in these assays?
PKD1 inh: 30.8; GALR2 agonist: 1.2; RGS16-Gao HTS: 110.0; HSV replic up: inactive; HSV replic up primary fold: 0.79

What do the screens show for `CC(=O)Nc1ccc(/C(C)=N/Nc2nc(Nc3cccc4ccccc34)nc(N3CCOCC3)n2)cc1`?
PKD1 inh: -1.4; GALR2 agonist: -1.3; INS promoter inh: -42.9; RGS16-Gao HTS: 43.9; HSV replic up: inactive; INS promoter inh cell count: 95.0; HSV replic up primary fold: 0.58

What do the screens show for `Cc1ccc(C(=O)Nc2nnc(-c3ccco3)o2)cc1`?
PKD1 inh: 8.0; GALR2 agonist: -0.9; RGS16-Gao HTS: 99.9; HSV replic up: inactive; HSV replic up primary fold: 0.96

What do the screens show for `O=C(CCCC(=O)N(CC(=O)NC1CCCCC1)Cc1ccccc1)Nc1ccccn1`?
PKD1 inh: -11.9; GALR2 agonist: -1.8; INS promoter inh: -22.9; RGS16-Gao HTS: 108.1; HSV replic up: inactive; INS promoter inh cell count: 121.6; HSV replic up primary fold: 1.01

Results for O=C(Nc1nc(-c2ccccc2)cs1)C1c2ccccc2Oc2ccccc21 ?
PKD1 inh: -7.5; GALR2 agonist: -1.8; INS promoter inh: 30.4; RGS16-Gao HTS: 102.1; HSV replic up: inactive; INS promoter inh cell count: 115.9; HSV replic up primary fold: 1.01

What do the screens show for `O=C(/C=C/c1ccc(S(=O)(=O)N2CCOCC2)cc1)NCc1ccc(Cl)cc1`?
PKD1 inh: -8.8; GALR2 agonist: -1.0; INS promoter inh: -3.6; RGS16-Gao HTS: 104.3; HSV replic up: inactive; INS promoter inh cell count: 81.8; HSV replic up primary fold: 1.11

How did NS(=O)(=O)c1ccc(NC(=O)c2ccccc2C(=O)N2CCCCC2)cc1 do in these assays?
PKD1 inh: -4.8; GALR2 agonist: -2.1; INS promoter inh: -17.1; RGS16-Gao HTS: 85.4; HSV replic up: inactive; INS promoter inh cell count: 91.7; HSV replic up primary fold: 0.56

Results for COc1ccc(-c2onc(C)c2-c2cnn(-c3ccccc3)c2)c(O)c1 ?
PKD1 inh: -3.3; RGS16-Gao HTS: 99.8; HSV replic up: inactive; HSV replic up primary fold: 0.84

By substructure: the entries above containing an aryl thioether with sulfur outside any ring (four)
Results for CCn1c(SCc2cccc(C)c2)nnc1-c1ccc(C)cc1 ?
PKD1 inh: -6.7; GALR2 agonist: -1.3; INS promoter inh: -38.2; RGS16-Gao HTS: 81.4; HSV replic up: inactive; INS promoter inh cell count: 154.6; HSV replic up primary fold: 0.97

Results for O=[N+]([O-])/C(C(Cl)=C(Cl)Cl)=C(/NC1CC1)Sc1ccccc1 ?
PKD1 inh: -1.2; RGS16-Gao HTS: 99.6; HSV replic up: inactive; HSV replic up primary fold: 0.93

What do the screens show for `CC(=O)c1ccc(Sc2nnc(C)s2)c([N+](=O)[O-])c1`?
PKD1 inh: 0.3; RGS16-Gao HTS: 95.9; HSV replic up: inactive; HSV replic up primary fold: 1.19

What do the screens show for `CCCCOc1ccc(-c2cc(C(F)(F)F)c(C#N)c(SCC(=O)O)n2)cc1`?
PKD1 inh: -8.1; RGS16-Gao HTS: 102.5; HSV replic up: inactive; HSV replic up primary fold: 1.28

Remaining list, next part
How did O=C(Nc1ccc(N2C(=O)C3CCCCC3C2=O)cc1Cl)c1cccs1 (stereo not given) do in these assays?
PKD1 inh: 9.9; INS promoter inh: 36.4; RGS16-Gao HTS: 55.5; HSV replic up: inactive; INS promoter inh cell count: 141.7; HSV replic up primary fold: 0.82

What do the screens show for `C=C(Cl)COc1ccc2c(CC)cc(=O)oc2c1`?
PKD1 inh: 1.6; GALR2 agonist: -1.8; RGS16-Gao HTS: 94.0; HSV replic up: inactive; HSV replic up primary fold: 0.93

What do the screens show for `COc1ccc(CCNS(=O)(=O)c2cccc(S(=O)(=O)N3CCCC3)c2)cc1OC`?
PKD1 inh: -10.6; GALR2 agonist: 0.1; RGS16-Gao HTS: 99.0; HSV replic up: inactive; HSV replic up primary fold: 0.89

How did O=C(CCCSc1nc2ccccc2[nH]1)NCc1ccc(Cl)cc1 do in these assays?
PKD1 inh: 5.5; GALR2 agonist: -1.2; RGS16-Gao HTS: 111.9; HSV replic up: inactive; HSV replic up primary fold: 0.97

What do the screens show for `COC(=O)c1cccc(NC(=O)CSc2ncn[nH]2)c1`?
PKD1 inh: -0.1; GALR2 agonist: -1.9; INS promoter inh: 0.0; RGS16-Gao HTS: 101.9; HSV replic up: inactive; INS promoter inh cell count: 89.5; HSV replic up primary fold: 1

How did CC(C)c1c(O)nc(SCCN(C)C)[nH]c1=O do in these assays?
PKD1 inh: -5.2; GALR2 agonist: -2.8; RGS16-Gao HTS: 101.4; HSV replic up: inactive; HSV replic up primary fold: 0.67

Results for O=C1OC(OC(=O)c2ccccc2Br)C(N2CCOCC2)=C1Cl (stereo not given) ?
PKD1 inh: 2.2; GALR2 agonist: 0.1; INS promoter inh: 13.9; RGS16-Gao HTS: 111.0; HSV replic up: inactive; INS promoter inh cell count: 100.0; HSV replic up primary fold: 0.95

What do the screens show for `Cn1cccc1Cc1nnc(SCC(=O)Nc2ccc3c(c2)OCO3)n1CCc1ccccc1`?
PKD1 inh: 2.5; GALR2 agonist: -1.2; RGS16-Gao HTS: 95.5; HSV replic up: inactive; HSV replic up primary fold: 1.15

Results for CC1CN(S(=O)(=O)c2cccc(C(=O)OCC(=O)c3cccs3)c2)CC(C)O1 (stereo not given) ?
PKD1 inh: -6.1; GALR2 agonist: -1.3; INS promoter inh: 46.1; RGS16-Gao HTS: 100.2; HSV replic up: inactive; INS promoter inh cell count: 130.2; HSV replic up primary fold: 1.04

Results for Cc1ccc2[nH]c(=O)c(CN(Cc3ccccc3)Cc3nnnn3C3CCCC3)cc2c1 ?
PKD1 inh: -14.9; GALR2 agonist: -1.4; RGS16-Gao HTS: 105.6; HSV replic up: inactive; HSV replic up primary fold: 0.97

Results for COC(=O)c1ccccc1NC(=O)Nc1cccs1 ?
PKD1 inh: -2.4; GALR2 agonist: -0.2; INS promoter inh: -44.7; RGS16-Gao HTS: 101.1; HSV replic up: inactive; INS promoter inh cell count: 116.7; HSV replic up primary fold: 0.95

What do the screens show for `Cc1cccc2cc(CN(CCc3ccccc3)C(=O)N3CCOCC3)c3nnnn3c12`?
PKD1 inh: 3.3; GALR2 agonist: -1.1; RGS16-Gao HTS: 154.6; HSV replic up: inactive; HSV replic up primary fold: 0.88

What do the screens show for `O=C(COc1ccc(Cl)cc1)NCc1nnc(SCC(=O)NCc2ccc3c(c2)OCO3)o1`?
PKD1 inh: 6.8; GALR2 agonist: -3.6; RGS16-Gao HTS: 98.7; HSV replic up: inactive; HSV replic up primary fold: 1.06

What do the screens show for `C=CCn1c(SCC(=O)Nc2ccc(NC(=O)c3ccco3)c(OC)c2)nnc1-c1ccncc1`?
PKD1 inh: -12.0; GALR2 agonist: -1.3; RGS16-Gao HTS: 92.3; HSV replic up: inactive; HSV replic up primary fold: 1

Results for COc1ccc(OC)c(-c2cc(C(=O)NCCCn3ccnc3)no2)c1 ?
PKD1 inh: -6.0; GALR2 agonist: -4.2; RGS16-Gao HTS: 128.0; HSV replic up: inactive; HSV replic up primary fold: 0.8

From PubChem

Not a hit list. Share with any hit: about 1.3%.
